total CFTR = total CFTR protein upregulators, primary screen, cell-based, HeLa F508del-CFTR, immunofluorescence, viability (AID 1224863); calls, or highest fold increase where a dose series was run; hit rate 0.1% among 10,000; HeLa F508del-CFTR, immunofluorescence total CFTR, 24 h; by the record results were divided by relative cell number; some inactives read as strong as hits; Cystic fibrosis transmembrane conductance regulator (Homo sapiens); in the data nearly all actives have a first-pass fold increase above 1.5; a few of its hits are not listed in these tables;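 note: total CFTR protein by anti-CFTR immunofluorescence in fixed cells; first pass at 25 µM or 10 µg/mL by library and series up to twice that; 1 = untreated cells; first-pass hits also needed half or more of the cells alive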
total CFTR fold 25 µM = also measured in total CFTR; calls as there; fold increase; measured here: primary screen single dose 25 uM; library dosed in µM
total CFTR fold 10 ug/mL = further read-out of total CFTR, marked with its call; fold increase; measured here: primary screen 10 ug/mL
total CFTR viability 25 µM = also measured in total CFTR; calls as there; viability, %; measured here: primary viability 25 uM; library dosed in µM;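 0% = killed and 100% = untreated cells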
total CFTR viability 10 ug/mL = recorded beside total CFTR, whose call it bears; viability, %; measured here: primary viability 10 ug/mL;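 0% = killed and 100% = untreated cells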
* hit, by the source's call; i = inactive; nt = no result given; & = joins results of further samples. Only part of the results is shown (hit frequency here may not be typical).

SMILES	total CFTR	total CFTR fold 10 ug/mL	total CFTR viability 10 ug/mL	others
Cc1cc(C)n(-c2ccc(=S)n(CN3CCC(CCc4ccccc4)CC3)n2)n1	i	1.1	100
CC(C)C(C)(C#N)NC(=O)Cn1nnn(-c2cccs2)c1=O (centres undefined)	i	0.95	98
C#CCNCC(=O)Nc1sc(C(N)=O)c(C)c1C(=O)OCCOC	i	1	84
CC/C=C\C/C=C\C/C=C\C/C=C\C/C=C\CCCC(=O)OCC	i	nt	nt	total CFTR fold 25 µM=1.1;total CFTR viability 25 µM=109
Cc1ccccc1OCC(O)CNCC1(N(C)C)CCCCC1 (centres undefined)	i	0.64	4
Cn1c(=O)c2[nH]c(Cl)nc2n(C)c1=O	i	nt	nt	total CFTR fold 25 µM=1.1;total CFTR viability 25 µM=88
CN(C)c1nc(N)nc(CSc2nnc3n2CCCCC3)n1	i	1	93
Cn1ncc2c1CCCC2NCc1ccc(Br)s1 (centres undefined)	i	1.1	96
Cc1nnc(SCCS(=O)(=O)c2ccc(Br)cc2)s1	i	1.1	105
Fc1ccc(-c2noc(CSc3ccccc3Br)n2)cc1	i	0.95	93
O=C(Cc1coc2cc3c(cc12)CCC3)N(C1CC1)C1CCS(=O)(=O)C1 (centres undefined)	i	0.96	90
C#C[C@]1(O)CCC2C3CCc4cc(O)ccc4C3CC[C@@]21C (some centres undefined)	i	nt	nt	total CFTR fold 25 µM=0.68;total CFTR viability 25 µM=76
CCC(C)(C)NCc1cc(=O)oc2c(C)c(O)ccc12	i	0.95	63
O=C(O)CCSc1ccccc1Br	i	0.96	108
CC(=O)c1c[nH]c(C(=O)OC(C(=O)NC(N)=O)C(C)C)c1 (centres undefined)	i	1.1	104
Cc1nc2ccccc2nc1SCC#N	i	0.92	91
CC/C=C(/C)C(=O)N1CCC(C)Sc2ccccc21 (centres undefined)	i	0.91	78
Clc1ccc(C2=NNC(=NC3CCCC3)SC2)cc1	i	0.81	83
CCCN(CN1C(=O)NC2(CCCCCC2)C1=O)C1CCS(=O)(=O)C1 (centres undefined)	i	1.1	111
CC(C)(C)NS(=O)(=O)c1ccc(Cl)c(C(F)(F)F)c1	i	1	97

Structures listed so far containing a Cl atom, in the order listed:
SMILES	total CFTR	total CFTR fold 10 ug/mL	total CFTR viability 10 ug/mL	others
Cn1c(=O)c2[nH]c(Cl)nc2n(C)c1=O	i	nt	nt	total CFTR fold 25 µM=1.1;total CFTR viability 25 µM=88
Clc1ccc(C2=NNC(=NC3CCCC3)SC2)cc1	i	0.81	83
CC(C)(C)NS(=O)(=O)c1ccc(Cl)c(C(F)(F)F)c1	i	1	97

More structures.
SMILES	total CFTR	total CFTR fold 10 ug/mL	total CFTR viability 10 ug/mL	others
CCCn1c(=O)c2ccccc2n2c(SCC3CC3(Cl)Cl)nnc12 (centres undefined)	i	0.93	92
CC(Nc1ncnc2c1oc1ccccc12)c1ccc(F)cc1 (centres undefined)	i	0.92	84
CSc1nc2ccc(NS(=O)(=O)c3c(C)noc3C)cc2s1	i	0.99	98
CN(Cc1ccc(Cl)s1)S(=O)(=O)c1ccc(S(N)(=O)=O)cc1	i	1	88
O=C(O)CCNc1nccs1	i	0.98	85
CC1(C(=O)NCCc2nnc3ccccn23)CC1(Cl)Cl (centres undefined)	i	1	98
CCc1nn2c(=O)cc(CSc3nc4sc(C)c(C)c4c(=O)n3CCOC)nc2s1	i	1.1	104
Cc1nc(SCC(=O)c2cc(C)n(C3CC3)c2C)c(C#N)c(C)c1C	i	1	87
NCc1ccc(-n2ccnc2)c(F)c1	i	0.9	91
CC(=O)[C@@]1(O)CCC2C3CCC4=CC(=O)CC[C@]4(C)C3CC[C@@]21C (some centres undefined)	i	nt	nt	total CFTR fold 25 µM=1;total CFTR viability 25 µM=102
CCOc1cc2c(cc1NS(=O)(=O)c1ccc(F)cc1Cl)OC(C)C2 (centres undefined)	i	0.99	68
O=C(OCc1nnc(-c2ccc(Cl)cc2)o1)c1ccc2c(=O)n3c(nc2c1)CCC3	i	1.1	85
CCOc1ccc(-c2nnn(CN3CCN(c4ncccn4)CC3)n2)cc1	i	1	98
CN(CC(=O)Nc1sccc1C(N)=O)Cc1ccsc1	i	0.91	81
CC1C(=O)N(Cc2cc(=O)n3ccccc3n2)C(=O)N1c1ccccc1 (centres undefined)	i	1	101
O=NN(CCCl)C(=O)NC1CCCCC1	i	nt	nt	total CFTR fold 25 µM=1&1&0.92;total CFTR viability 25 µM=91&87&92
Cc1oc(-n2cccc2)c(C#N)c1C(=O)OCc1cc(-c2ccco2)on1	i	0.97	100
Fc1ccc(-c2ccc(-c3nnc4n3CCCCCC4)s2)cc1	i	1	81
O=S(=O)(Nc1cc(F)ccc1F)c1ccc(F)cc1F	i	1	70
CN(CC(=O)NC(C)(C)C)C(=O)C12CC3CC(CC(C3)C1)C2	i	1	84
CCn1c(C)cc(C(=O)COC(=O)c2nccnc2N)c1C	i	1	88
Cc1csc(CNC(=O)CC2C=CCC2)n1 (centres undefined)	i	1.1	101
CN[C@@H]1[C@@H](O[C@H]2O[C@H](CO)[C@@H](N)[C@H](O)[C@H]2O)O[C@H]2C[C@@H](N)[C@@H](O[C@H]3[C@H](O)[C@@H](O)[C@H](N)C[C@@H]3N)O[C@@H]2[C@@H]1O	i	nt	nt	total CFTR fold 25 µM=1;total CFTR viability 25 µM=98
CN[C@H]1CC[C@@H](c2ccc(Cl)c(Cl)c2)c2ccccc21	i	nt	nt	total CFTR fold 25 µM=0.61;total CFTR viability 25 µM=37
CCN(CC)Cc1ccccc1CNc1ccc2nnnn2n1	i	1	92
CC(=O)OCC(=O)[C@@]1(OC(C)=O)[C@@H](C)CC2C3C[C@H](F)C4=CC(=O)C=C[C@]4(C)[C@@]3(F)[C@@H](O)C[C@@]21C (some centres undefined)	i	nt	nt	total CFTR fold 25 µM=1;total CFTR viability 25 µM=96
Cn1c(=O)c2c(ncn2CC(=O)N2C(C)(C)CC(=O)CC2(C)C)n(C)c1=O	i	0.96	106
C[C@]12CC[C@@H]3c4ccc(O)cc4CC[C@H]3[C@@H]1CC[C@@H]2O	i	nt	nt	total CFTR fold 25 µM=0.93&0.83;total CFTR viability 25 µM=78&110
NC(=O)NO	i	nt	nt	total CFTR fold 25 µM=1.1&0.98;total CFTR viability 25 µM=85&91
O=C(O)c1ccc(NC2CC2)c(Br)c1	i	1	95
O=C(Nc1ccccc1N1CCCC1=O)C1CCC1	i	1	96
COc1cc([C@@H]2c3cc4c(cc3C(OC3O[C@@H]5COC(C)O[C@H]5[C@H](O)[C@H]3O)C3COC(=O)[C@@H]32)OCO4)cc(OC)c1O (some centres undefined)	i	nt	nt	total CFTR fold 25 µM=1.1;total CFTR viability 25 µM=70
O=C(CSC1CCCC1)N1c2ccccc2OCC1c1ccccc1 (centres undefined)	i	0.94	93
COCCN(CCOC)S(=O)(=O)c1cc2c(cc1Br)NC(=O)CO2	i	1.1	103
CC1(c2cc(F)ccc2F)NC(=O)N(CC(=O)c2ccc3c(c2)OCCO3)C1=O (centres undefined)	1	1.3	69
N#Cc1cc([N+](=O)[O-])ccc1Sc1nnc(C2COc3ccccc3O2)n1-c1ccccc1 (centres undefined)	i	0.71	23

For convenience, 4 of the compounds above:
SMILES	total CFTR	total CFTR fold 10 ug/mL	total CFTR viability 10 ug/mL	others
O=C(O)c1ccc(NC2CC2)c(Br)c1	i	1	95
O=C(Nc1ccccc1N1CCCC1=O)C1CCC1	i	1	96
COc1cc([C@@H]2c3cc4c(cc3C(OC3O[C@@H]5COC(C)O[C@H]5[C@H](O)[C@H]3O)C3COC(=O)[C@@H]32)OCO4)cc(OC)c1O (some centres undefined)	i	nt	nt	total CFTR fold 25 µM=1.1;total CFTR viability 25 µM=70
O=C(CSC1CCCC1)N1c2ccccc2OCC1c1ccccc1 (centres undefined)	i	0.94	93

Quoted at random: two compounds from above.
SMILES	total CFTR	total CFTR fold 10 ug/mL	total CFTR viability 10 ug/mL	others
COc1cc([C@@H]2c3cc4c(cc3C(OC3O[C@@H]5COC(C)O[C@H]5[C@H](O)[C@H]3O)C3COC(=O)[C@@H]32)OCO4)cc(OC)c1O (some centres undefined)	i	nt	nt	total CFTR fold 25 µM=1.1;total CFTR viability 25 µM=70
CC1(c2cc(F)ccc2F)NC(=O)N(CC(=O)c2ccc3c(c2)OCCO3)C1=O (centres undefined)	1	1.3	69

Bioassay records: PubChem, Southern Research Institute
